KCNQ2 pot: KCNQ2 (rat) channel potentiation | O88943 | CHO-K1 KCNQ2, FluxOR thallium flux fluorescence; stronger effect = higher value | B-score at 10 µM | 310,000 tested, 0.54% active;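 active = fluorescence ratio B-score at least 3 SD of library B-scores, with initial fluorescence B-score within 3 SD, cut at about 5.3 in these data; same plate scores as AID 2156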;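 also: B-score of peak minus minimum over baseline fluorescence ratio after K+ and Tl+ stimulus; positive B-score means potentiation of KCNQ2 with more thallium influx and brighter signal; only the inactives scoring about 0 or higher are listed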
Target sequence (O88943 whole entry, looked up): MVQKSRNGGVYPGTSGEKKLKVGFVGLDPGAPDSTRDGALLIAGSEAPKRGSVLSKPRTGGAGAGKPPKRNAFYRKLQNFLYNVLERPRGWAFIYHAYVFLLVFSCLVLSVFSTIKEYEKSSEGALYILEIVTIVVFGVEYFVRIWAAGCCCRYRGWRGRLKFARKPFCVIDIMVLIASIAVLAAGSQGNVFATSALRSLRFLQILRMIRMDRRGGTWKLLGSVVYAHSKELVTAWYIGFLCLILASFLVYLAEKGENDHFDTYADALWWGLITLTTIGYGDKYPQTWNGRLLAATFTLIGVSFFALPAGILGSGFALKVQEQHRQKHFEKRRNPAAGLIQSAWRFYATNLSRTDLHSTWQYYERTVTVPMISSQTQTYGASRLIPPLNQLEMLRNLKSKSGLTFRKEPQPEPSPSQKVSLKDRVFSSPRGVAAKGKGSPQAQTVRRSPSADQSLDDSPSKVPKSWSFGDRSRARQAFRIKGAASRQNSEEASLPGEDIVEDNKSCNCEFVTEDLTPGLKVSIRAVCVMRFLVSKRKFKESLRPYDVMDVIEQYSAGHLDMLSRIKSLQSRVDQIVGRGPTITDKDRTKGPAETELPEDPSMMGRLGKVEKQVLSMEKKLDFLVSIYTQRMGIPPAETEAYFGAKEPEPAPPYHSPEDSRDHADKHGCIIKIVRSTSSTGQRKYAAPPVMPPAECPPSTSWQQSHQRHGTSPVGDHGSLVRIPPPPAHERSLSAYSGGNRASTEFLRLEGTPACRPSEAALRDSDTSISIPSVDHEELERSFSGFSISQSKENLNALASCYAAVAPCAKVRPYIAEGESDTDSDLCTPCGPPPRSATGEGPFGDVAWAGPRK
KCNQ2 pot baseline: further read-out of KCNQ2 pot, marked with its call; B-score; compound at 10 µM; measured here: initial fluorescence intensity artifact check;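 brightness before thallium and not channel activity; 0 = typical well and far values either way flag optical interference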
Numbers without * were called inactive; . = no result given. Only part of the results is shown; count on the stated rates, not on these rows.

molecule,KCNQ2 pot,KCNQ2 pot baseline
Cc1ccc(S(=O)(=O)N2CCC(C(=O)N[C@H](C(=O)NCc3ccco3)C(C)C)CC2)cc1,0.78,-1.1
O=C(CN1C(=O)c2ccccc2C1=O)NCC1COc2ccccc2O1 (configuration not stated),0.99,-1.7
COc1ccc(NS(=O)(=O)c2ccc(OCC(=O)N3CCCC3)cc2)cc1,0.87,0.04
Cc1ccccc1NC1C=CS(=O)(=O)C1 (configuration not stated),2,-0.02
CSc1nnc(Cn2c(=O)sc3ccccc32)n1C,0.09,1.1
CC(NC(=O)NCc1cccnc1)(C(F)(F)F)C(F)(F)F,0.37,0.07
COc1ccc(OC)c(/C=C/C(=O)Nc2cccc(S(=O)(=O)N3CCCC3)c2)c1,0.05,1.1
Fc1ccc(-c2nnc3ccccn23)cc1,0.1,-1.5
CCCNS(=O)(=O)c1ccc(OCC(=O)NCC2CCCO2)cc1 (configuration not stated),0.37,2.2
CCOC(=O)C1CCN(C(=O)C2CCN(c3ncnc4c3nc3n4CCCCC3)CC2)CC1,1.2,0.44
COCCNC(=O)C(c1ccc(C)o1)N(Cc1ccco1)C(=O)c1snc(C(N)=O)c1N (configuration not stated),0.58,-0.03
NC(=O)CCN1CCN(S(=O)(=O)/C=C/c2ccccc2)CC1,1.1,-0.16
CCCC(=O)N1CC(=O)Nc2ccc(C)cc2C1c1ccccc1 (configuration not stated),0.54,-0.37
CC(C)(C)C(=O)/C=c1\[nH]c(=O)/c(=C\c2ccc(C#N)cc2)s1,1.5,0.4
O=C(O)c1cc(S(=O)(=O)N2CCN(c3ccccn3)CC2)ccc1Cl,0.08,-0.17

Filtered by structure, the entries above containing a carbonyl joined to an NH by a bond outside any ring
molecule,KCNQ2 pot,KCNQ2 pot baseline
Cc1ccc(S(=O)(=O)N2CCC(C(=O)N[C@H](C(=O)NCc3ccco3)C(C)C)CC2)cc1,0.78,-1.1
O=C(CN1C(=O)c2ccccc2C1=O)NCC1COc2ccccc2O1 (configuration not stated),0.99,-1.7
CC(NC(=O)NCc1cccnc1)(C(F)(F)F)C(F)(F)F,0.37,0.07
COc1ccc(OC)c(/C=C/C(=O)Nc2cccc(S(=O)(=O)N3CCCC3)c2)c1,0.05,1.1
CCCNS(=O)(=O)c1ccc(OCC(=O)NCC2CCCO2)cc1 (configuration not stated),0.37,2.2
COCCNC(=O)C(c1ccc(C)o1)N(Cc1ccco1)C(=O)c1snc(C(N)=O)c1N (configuration not stated),0.58,-0.03
NC(=O)CCN1CCN(S(=O)(=O)/C=C/c2ccccc2)CC1,1.1,-0.16

(next part)
molecule,KCNQ2 pot,KCNQ2 pot baseline
CCOc1ccc(C(=O)N(c2ccccn2)C2CCCCC2)cc1,1.1,-1.5
CN(C)C1(CNC(=O)C2CCN(S(=O)(=O)c3ccccc3C(F)(F)F)CC2)CCCCC1,0.13,-0.04
COc1cccc(/C=N/NC(=O)CNC(=O)c2ccncc2)c1O,0.05,1
CCOCCn1c(=NC(=O)CSCC(=O)N2CCOCC2)sc2cc(OC)ccc21,0.4,1.6
Cc1ccc(S(=O)(=O)N(C)c2ccc(OCC(=O)N3CCCCC3)cc2)cc1,0.88,-1.1
COc1ccc(C(=O)/C=C/Nc2ccc(S(=O)(=O)Nc3onc(C)c3C)cc2)cc1,1.5,-1.5
Cc1ccccc1N1CC(=O)N(c2ccccc2C)CC1=O,0.51,0.53
CC(C)CN1C(=O)C(=Nc2cccnc2)c2ccccc21,0.24,-0.66
COCCn1c(C)cc2c(c1=O)C(c1ccccc1F)C(C#N)=C(N)O2 (configuration not stated),0.15,2.1
NS(=O)(=O)c1ccc(NC(=O)c2cc(-c3cc(Cl)ccc3O)n[nH]2)cc1,0.41,-1.1
O=C(CCn1cnc2ccccc21)N/N=C/C=C/c1ccccc1,0.68,0.66
Cc1noc(-c2ccccc2)c1NC(=O)Nc1ccc(Cl)cc1,0.02,0
CC1CCN(C(=O)COc2cccc3c2CCN(C)C3=O)CC1,1.9,1.4
Cc1nn(CC(=O)N(C)Cc2ccc(F)cc2)c(C)c1[N+](=O)[O-],1.9,0.61
COc1ccc(CC(=O)Nc2ncc([N+](=O)[O-])s2)cc1OC,0.37,-1.2

molecule,KCNQ2 pot,KCNQ2 pot baseline
CCOC(=O)N1CCN(C(=O)C2CCC(CNS(=O)(=O)c3ccc(Cl)cc3)CC2)CC1 (configuration not stated),1.8,-0.72
O=C1CCN(Cc2ccccc2)CCN1[C@H](CO)Cc1ccccc1,0.35,1.5
Cc1nn(CC(=O)N2CCN(c3ccccc3)CC2)c(=O)c2cccn12,0.94,0.39
O=C(O)/C=C/C(=O)NCCNc1ncc(C(F)(F)F)cc1Cl,3.2,-0.45
CC1=C(c2ccc(F)cc2)[N+](=O)C(C)(C)N1[O-],0.39,0.29
O=C(CC12CC3CC(CC(C3)C1)C2)NCC(=O)OCc1cc(=O)oc2ccc3ccccc3c12,4.6,0
O=Cc1cccn1-c1ccc2ccccc2c1,0.21,0.08
CC(C)c1ccccc1OCCCN1CCCC1,0.01,1.1
CC(=O)n1cc(CO)c2ccccc21,0.95,-0.02
O=C(NC1CCCC1)c1ccccc1-c1nc2ccccc2[nH]1,2.1,-0.2
COc1cccc(-c2ccc3nnc(SCC(=O)N4CCCC4)n3n2)c1,1.1,0.09
Cn1c(CCNC(=O)c2ccccc2)nc2ccccc21,0.95,-0.61
CN(Cc1ccccc1)c1ccc(S(=O)(=O)N2CCOCC2)cn1,1.4,0.26
CCCN1C(=O)c2cc(C(=O)O)ccc2C1O (configuration not stated),1.1,1.5
CC(NS(=O)(=O)c1c(N)n(C)c(=O)n(C)c1=O)c1ccccc1 (configuration not stated),0.32,-0.78

molecule,KCNQ2 pot,KCNQ2 pot baseline
O=[N+]([O-])c1ccc(/C=C/c2ccc3cccc(O)c3n2)cc1,0.05,2
Cc1cc(=O)[nH]c(SCC(=O)NCCc2ccccc2)n1,1.4,0.83
Cc1ccccc1OCC(=O)NN1Cc2ccccc2C1=N,1.7,0.48
COc1ccc(C(=O)O/N=C(\C)c2cnccn2)cc1,0.22,0.34
CC(=O)N1CCN(c2ccc(NC(=O)C(C)Oc3ccc(Cl)cc3Cl)cc2)CC1 (configuration not stated),0.35,-0.01
C(=C/c1ccnc2nc(SC/C=C/c3ccccc3)nn12)/c1ccccc1,0.02,1.6
O=C(Cc1ccccc1)NCc1ccc2c(c1)OCO2,2.6,-1.1
NC(=O)CC(NC(=O)Cc1ccc(Br)cc1)c1ccc(NCCN2CCCCC2)c([N+](=O)[O-])c1 (configuration not stated),0.44,-1.6
COc1cc(/C=C/c2ccc3cccc(OC)c3n2)c(OC(C)=O)c([N+](=O)[O-])c1,-5.6,.
CC(C)n1nccc1NC(=O)Nc1ccccc1,1.2,-0.08
O=C(COC(=O)c1cccnc1Cl)Nc1ncc(Cl)cc1Cl,1.1,-0.81
Cc1nc(Nc2cccc(C(C)O)c2)c2nnn(Cc3ccc(F)cc3)c2n1 (configuration not stated),3,0.59
CCn1cc(C(=O)NCCCOC)c(=O)c2cc(S(=O)(=O)N(C)C)ccc21,2.1,1.9
O=C(N/N=C/c1ccc(Cl)cc1)C1CC12CCC2 (configuration not stated),0.58,-0.69
COc1ccc(S(=O)(=O)Nc2ccccn2)cc1C,0.03,-0.17

molecule,KCNQ2 pot,KCNQ2 pot baseline
O=C(Nc1ccc2c(c1)C(=O)NC2=O)c1ccccc1,0.48,0.03
CN(C)c1ccc(CNC2C3CC4CC(C3)CC2C4)cc1 (configuration not stated),3.1,-0.02
Cc1ccc(C(=O)NCCn2cc(SCC(=O)Nc3cc(C)on3)c3ccccc32)cc1,2.4,0.17
COc1ccc(C)cc1S(=O)(=O)N1CCCC(C(=O)N2CCOCC2)C1 (configuration not stated),1.4,-0.23
NS(=O)(=O)c1cccc(NC(=O)CCSc2ccccc2Cl)c1,0.54,0.1
O=CN1CCCN(Cc2nc(-c3cccc(Cl)c3)no2)CC1,0.06,-0.3
Cc1cc(C)cc(N(C(=O)c2cccs2)C2C=CS(=O)(=O)C2)c1 (configuration not stated),0.3,-0.27
CCCCc1ccc(-c2csc(/C(C#N)=C\c3ccc(C)o3)n2)cc1,0.13,0.97
O=C(NCc1cccnc1)C1CCCN(S(=O)(=O)c2ccc(Cl)cc2)C1 (configuration not stated),0.62,-0.01
Cc1cccc(/C=N/Nc2nncc3ccccc23)c1,0.57,-1.6
CN(CC(=O)Nc1ccc(F)cc1)C(=O)c1cc([N+](=O)[O-])ccc1N1CCOCC1,0.06,-1
O=[N+]([O-])c1cc(C(F)(F)F)ccc1NC1CCN(Cc2ccccc2)CC1,0.68,-0.84
Cc1ccc(N(C)C(=O)n2cnc3ccccc32)cc1,1.7,0.06
CCCCOC(=O)C(C#N)c1nc2ccccc2nc1N1CCN(Cc2ccc3c(c2)OCO3)CC1 (configuration not stated),0.8,-0.82
Nc1cc(Nc2ccc(Br)cc2)nc(N)n1,1.5,2.6

molecule,KCNQ2 pot,KCNQ2 pot baseline
Cc1ccn2cc(CNS(=O)(=O)c3ccc4ccccc4c3)nc2c1,2.2,0.24
COc1ccccc1NC(=O)Nc1ccc(N2CCOCC2)cc1,1.2,-0.05
COc1ccc(C(=O)Nc2ccc3c(c2)nc(CN2CCCC2)n3C)cc1,0.08,-1.2
CC12CC3(C)CC(C)(C1)CC(C(N)=O)(C2)C3,0.08,2.8
COc1cccc(-c2csc3nnc(SCC(=O)c4ccc(NC(C)=O)cc4)n23)c1,0.3,0.95
O=C(CCc1nc(-c2ccccn2)no1)NCc1ccc2c(c1)OCO2,0.68,-0.07
CCOC(=O)Nc1nc(-c2ccc(F)cc2F)cs1,3,-2.4
COc1ccc(OCC(=O)N2CCN(C(=O)COc3ccc(Br)cc3)CC2)cc1,0.21,0
Cn1c2c(c(=O)n(C)c1=O)C(c1ccccc1Cl)CC(=O)N2 (configuration not stated),0.93,-0.67
COc1ccc(/C=C2\CCn3c2nc2cc(C(=O)O)ccc2c3=O)cc1O,0.02,0.84
Cn1c(=O)cc(SCC(=O)Nc2ccccn2)c2ccccc21,0.23,-0.37
C=CCc1cc(OC)ccc1OCC(O)CN1CCN(c2ccc(OC)cc2)CC1 (configuration not stated),0.86,.
c1ccc(-c2nc3cc4ccccc4cc3[nH]2)nc1,0.15,0.22
Cc1ccc(NC(=O)[C@@H](C)NC(=O)[C@@H]2Cc3ccccc3CN2)cc1,0.92,0.52
CCN(CC)C(=O)CSc1nc(O)c(Cc2ccccc2)c(=O)n1-c1ccccc1,1.3,0.97

The final 3 compounds of the part before come first, to join the parts:
molecule,KCNQ2 pot,KCNQ2 pot baseline
c1ccc(-c2nc3cc4ccccc4cc3[nH]2)nc1,0.15,0.22
Cc1ccc(NC(=O)[C@@H](C)NC(=O)[C@@H]2Cc3ccccc3CN2)cc1,0.92,0.52
CCN(CC)C(=O)CSc1nc(O)c(Cc2ccccc2)c(=O)n1-c1ccccc1,1.3,0.97
CCCCNC(c1ccccc1)c1ccncc1 (configuration not stated),1.3,0.89
Cc1ccc(N(C(=O)CCC(=O)Nc2nccs2)C(C(=O)NC(C)(C)C)c2ccc(O)cc2)cc1 (configuration not stated),1.7,-0.08
C=CCNc1nc(-c2cccs2)c(CC(=O)O)s1,0.96,0.09
C=CCC(CC=C)(NC(=O)c1ccccc1)c1ccccc1,0.02,-0.58
COc1ccc(CCNC(=O)Cn2c([N+](=O)[O-])cnc2C)cc1OC,0.88,-1.1
OCCN=Cc1c(O)[nH]c2ccccc12,2.6,0.16
CN=C(NC1CCCCC1)c1ccc(Cl)cc1,0.26,0.72
COc1ccc(N(CC(=O)N2CCN(C)CC2)S(=O)(=O)c2cc(C)ccc2OC)cc1Cl,0.66,-0.23
Cc1ccccc1OC(C)C(=O)NCCCN1CCOCC1 (configuration not stated),0.11,-0.2
Cc1ccc(NC(=O)CSc2nc(=O)n(CCN(C)C)c3c2CCCC3)cc1Cl,0.77,-1.4
COc1ccc(C(=O)O)cc1S(=O)(=O)NCCc1ccccn1,0.16,-0.28
c1ccc(CN2CCN(c3nc4ccccc4n4cnnc34)CC2)cc1,0.64,0.65
O=C(C1CC1)N1CCc2cc(Br)cc(S(=O)(=O)NCC3COc4ccccc4O3)c21 (configuration not stated),0.87,-1.2
COc1ccc(C)cc1NC(=O)C12CCC(C)(C(=O)O1)C2(C)C (configuration not stated),2.5,-1.2
CCN(CC)S(=O)(=O)c1ccc(C(=O)N2CCN=C2SCc2cccnc2)cc1,0.98,0.46
Clc1ccc2c(c1)C=Nc1c(NCc3ccccc3)ncnc1O2,0.55,1.8
COC(=O)c1ccc(N2CCOCC2)c(NC(=O)c2cccnc2)c1,0.26,-2.5
CCCCn1c(SCC(=O)Nc2cc(C)[nH]n2)nc2ccsc2c1=O,1.4,0.35
